FGF22 binding – FGF22 (human) thermal shift binding; Q9HCT0; recombinant FGF22 thermal shift, SYPRO orange fluorescence; percent of sucrose octasulfate shift, DMSO zero; calls only at 9.99 µM; actives 1.5% (n = 340,000);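 active = melting point raised past a set limit in the mean and every replicate; inconclusive = no clear call; three in four hits are not shown here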
ALR H2O2 inh – human ALR oxidase inhibition via reduced H2O2; P55789; purified ALR, DTT oxidation, H2O2 HRP-luminol luminescence; inhibition, % (concentration not given with the values); actives 3.8% (n = 290,000); AID 485317;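 active = mean and each replicate at 75% or more; inconclusive = only one of the two met; inactive = neither met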;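 also: stock transfer was 7.5 nL into about 7.5 µL; 0% = neutral wells and 100% = wells with inactivated enzyme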
LANA-H2A inh – blocks KSHV LANA binding to histone H2A/H2B. cell-free LANA-H2A/H2B peptide, fluorescence polarization. inhibition, % (test concentration not listed). actives 0.6% (n = 320,000). AID 2629; in the data active = inhibition mostly above about 10%, no sharp cut-off; inactive = mostly below about 6.7%;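 also: stock transfer was 7.5 nL into about 10 µL; 0% = median of vehicle wells and 100% = median of positive control wells; one replicate is shown; the record names a cut of 25% in any replicate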
Target sequence (Q9QR71 whole entry, looked up): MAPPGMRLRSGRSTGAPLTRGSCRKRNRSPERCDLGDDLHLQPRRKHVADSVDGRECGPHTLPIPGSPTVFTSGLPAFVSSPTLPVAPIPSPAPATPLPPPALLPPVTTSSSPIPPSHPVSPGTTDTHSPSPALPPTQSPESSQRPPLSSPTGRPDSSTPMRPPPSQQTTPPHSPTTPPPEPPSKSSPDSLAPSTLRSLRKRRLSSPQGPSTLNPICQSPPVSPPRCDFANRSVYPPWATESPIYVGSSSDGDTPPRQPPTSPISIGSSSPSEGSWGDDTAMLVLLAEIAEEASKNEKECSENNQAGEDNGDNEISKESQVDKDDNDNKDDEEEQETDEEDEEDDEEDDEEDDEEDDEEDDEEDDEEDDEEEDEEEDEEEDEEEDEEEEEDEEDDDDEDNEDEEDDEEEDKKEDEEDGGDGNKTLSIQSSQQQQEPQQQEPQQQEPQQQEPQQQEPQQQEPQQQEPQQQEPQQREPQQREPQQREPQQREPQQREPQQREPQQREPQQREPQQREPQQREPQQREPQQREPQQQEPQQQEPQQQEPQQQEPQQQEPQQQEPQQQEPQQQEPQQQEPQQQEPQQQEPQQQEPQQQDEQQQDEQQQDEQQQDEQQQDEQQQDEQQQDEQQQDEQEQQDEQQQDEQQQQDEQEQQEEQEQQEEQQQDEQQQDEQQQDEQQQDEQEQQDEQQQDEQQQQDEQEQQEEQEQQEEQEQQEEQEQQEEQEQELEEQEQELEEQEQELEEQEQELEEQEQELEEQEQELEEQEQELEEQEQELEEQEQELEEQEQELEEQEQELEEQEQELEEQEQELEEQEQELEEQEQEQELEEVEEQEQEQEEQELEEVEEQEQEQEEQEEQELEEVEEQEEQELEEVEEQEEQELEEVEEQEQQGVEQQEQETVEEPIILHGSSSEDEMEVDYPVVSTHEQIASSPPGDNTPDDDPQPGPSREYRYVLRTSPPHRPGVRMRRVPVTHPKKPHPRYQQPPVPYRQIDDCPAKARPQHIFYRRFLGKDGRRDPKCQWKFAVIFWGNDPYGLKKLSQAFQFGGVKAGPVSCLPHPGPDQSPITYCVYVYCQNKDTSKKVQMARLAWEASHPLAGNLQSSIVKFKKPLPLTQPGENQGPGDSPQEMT
UCH37 DUB inh – inhibitors of human deubiquitinating enzyme UCH37 | Q9Y5K5 | inhibition, % (test concentration not listed) | actives 0.33% (n = 330,000) | purified proteasome/UCH37, Ub-AMC cleavage fluorescence | AID 588478;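 active = mean of two replicates above 20%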;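 also: 0% = compound-free wells with enzyme and 100% = wells lacking proteasome; stock transfer was 100 nL into about 20 µL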
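system = Proteasome-associated human UCH37 deubiquitinase | amount = 0.15 nM proteasome as dispensed | medium = pH 7.4 Tris-HCl (50 mM) with ovalbumin, ATP-MgCl2, DTT | incubation = 30 min preincubation with enzyme, 25 min cleavage at room temperature | detection = AMC fluorescence 355/460 nm | read-out basis = percent inhibition | controls = no-proteasome and no-compound wells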
HNF4A DNA FP – change in binding of human HNF4 alpha to DNA; HNF4a-FITC DNA binding, fluorescence polarization, 1 h; activity change, % at 10 µM; actives 0.3% (n = 360,000); in the data active = activity change above about 30%, passing the limit was not always enough;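 also: controls were the assay level and a saturating level of protein; the project sought stronger binding though the title names inhibitors; some compounds called inactive have numbers as strong as hits; positive values seem to mean higher polarization but the record does not say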
Beta2AR agonist – activates human beta-2 adrenergic receptor causing internalization; P07550; Am2.2-beta2AR cells, FAP receptor internalization, flow cytometry; reference of the scale not given here; response, % (concentration not given with the values); actives 0.43% (n = 340,000);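 active = response above a set limit, near 3 SD of response in nonfluorescent compounds, cut at about 42% in these data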;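 also: stock transfer was 100 nL into about 11 µL; a reference agonist was the positive control; negative values mostly stem from fluorescent compounds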
E coli growth – blocks Escherichia coli growth. OD600, 23 h; stronger effect = lower value. OD600 absorbance (test concentration not listed). actives 0.21% (n = 330,000). AID 1053175;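 active = OD600 absorbance below the run mean of sample wells minus 3.6 SD, in any replicate, cut at about 0.56 in these data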;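 also: stock transfer was 300 nL into about 60 µL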
Numbers without * were called inactive; i = inactive; ? = inconclusive; . = no result given.

cpd	UCH37 DUB inh	LANA-H2A inh	E coli growth	ALR H2O2 inh	mol	HNF4A DNA FP	FGF22 binding	Beta2AR agonist
1	1.0	0.4	0.72	-10	O=C(CSc1nc2c(oc3ccccc32)c(=O)n1CC1CCCO1)NCc1ccccc1 (centres undefined)	1.3	i	-3
2	1.1	-3.2	0.69	2	Cc1cc(C)n(C2CCCCC2OC(=O)c2ccccc2F)n1 (centres undefined)	-0.1	.	8
3	2.5	-8.8	0.72	-4	CCN(CC)C(=O)C1CCC(C)(C(=O)O)C1(C)C (centres undefined)	-0.7	.	1
4	1.2	-3.1	0.72	-2	O=C(c1cc2ccccc2oc1=O)N1CCN(c2ccccn2)CC1	3.6	.	1
5	0.9	2.8	0.69	-4	O=C(c1cccc(NS(=O)(=O)c2ccc(F)c(F)c2)c1)N1CCN(Cc2ccccc2)CC1	-0.7	.	-7
6	-15	1.1	0.65	.	COC(=O)c1c(NC(=O)c2ccccc2F)sc(C(=O)N2CCOCC2)c1C	1.2	i	-8
7	-71	1.2	.	-5	O=c1c(-c2ccccc2)nc(-c2ccccc2)cn1O	1.7	.	-2
8	-1.4	-1.5	0.68	2	S=C(c1ccc(-c2cccc(Cl)c2)o1)N1CCCCC1	3.1	i	2
9	-2.4	0.0	0.67	1	COc1ccc(NC(=O)CNC(=O)Cn2ccc3ccccc3c2=O)c(OC)c1	-0.7	i	4
10	0.0	4.1	0.64	4	CC12C(=O)N(c3ccccc3)C(=O)C1C(c1ccccc1)N1CCCN12 (centres undefined)	5.8	i	-6
11	7.7	2.6	0.7	.	Cc1cccc(OCc2nnc(SCn3nnc4ccccc4c3=O)o2)c1	-0.6	.	-2
12	5.1	-0.5	0.61	-10	Cc1nc2ccc(NC(=O)CS(=O)(=O)c3ccc(F)cc3)cc2s1	0.5	i	-8
13	6.1	-1.9	0.74	.	O=S(=O)(Nc1cccc(Cl)c1)c1ccc(-n2cccn2)cc1	-3.1	i	-17
14	-55	-2.6	0.75	-8	O=C(Cn1c2ccc(F)cc2c2nc3n(c(=O)c21)CCS3)Nc1ccccc1F	.	.	.
15	3.5	-0.8	0.64	2	Cc1nc(NCC2CCCO2)c2nnn(Cc3c(F)cccc3Cl)c2n1 (centres undefined)	-3.2	i	-7
16	5.5	-2.1	0.69	0	Nc1ccc(C(=O)OCC(=O)N2CCc3ccccc3C2)cc1[N+](=O)[O-]	4.6	i	-13
17	11	-1.4	0.66	26	Nc1nn2c(C(F)(F)F)cc(=O)[nH]c2c1N=Nc1cccc(F)c1	0.0	.	2
18	.	-2.3	.	-47	CCOc1cc(/C=N/NC(=O)c2ccncc2)cc(Cl)c1OS(C)(=O)=O	-1.8	i	5
19	2.1	-0.9	0.67	.	Cc1ccc2nc(Nc3nc(C)cc(C(F)(F)F)n3)nc(C)c2c1	-0.6	.	-10
20	0.9	3.1	0.72	-12	Cc1cccc(C(=O)OCC(=O)NCC2COc3ccccc3O2)c1 (centres undefined)	-2.4	i	9
21	2.9	-1.0	0.69	-1	O=C1c2ccccc2S(=O)(=O)c2cc(C(=O)N3CCN(c4ccc(Cl)cn4)CC3)ccc21	1.4	i	-3
22	-42	-5.0	0.72	-22	O=C1c2ccccc2NC(c2ccccn2)N1c1ccc(Cl)cc1 (centres undefined)	0.3	.	0
23	0.4	2.8	0.68	-1	CCc1ccc(OCC(=O)Nc2ccc3c(c2)OCCO3)cc1	0.5	i	3
24	2.3	.	0.72	.	COc1cccc(NC(=O)c2ccc(NCCCN3CC(C)CC(C)C3)c([N+](=O)[O-])c2)c1 (centres undefined)	6.4	i	4
25	1.3	-0.7	0.72	-17	Cc1ccc(CNC(=O)CCc2ccc(S(=O)(=O)NC3CCCCC3)cc2)cc1	-2.7	.	-3
26	-120	4.8	0.69	-2	Cc1ccc(/C=C/C(O)=C2/C(=O)N(C)C3(C)CC2c2ccccc2O3)cc1 (centres undefined)	0.0	.	16
27	-5.0	11	0.69	-28	COc1ccc2nc(C)cc(NCCN3CCOCC3)c2c1	2.4	i	0
28	-0.9	-1.6	0.66	-1	COc1ccc(C2(O)CCN(CCCCOc3ccccc3)CC2)cc1	2.1	i	-2
29	2.2	-0.9	0.64	51	COC(=O)CNc1nc(Cl)nc(NC2CCCCC2)n1	-1.1	i	4
30	1.6	-0.6	0.68	0	CCc1ccc(C(=O)OCC(=O)c2c(N)n(CC(C)C)c(=O)n(C)c2=O)cc1	1.0	.	13
31	.	-1.1	.	-3	COc1ccc(/C(C)=N/NC(=O)CNC(=O)COc2ccccc2)c(OC)c1	0.5	i	-3
32	-3.1	-3.5	0.67	-13	Cc1ccc(Cl)cc1NC(=O)CSc1nnc(C)n1-c1ccccc1	-4.8	.	-8
33	2.1	-2.3	0.68	0	O=C(COc1ccc([N+](=O)[O-])cc1)Nn1cnnc1	4.3	i	-6
34	1.0	0.6	0.71	0	COc1ccccc1N(CC(=O)NC(C)(C)C)C(=O)CCC(=O)Nc1nccs1	-1.8	i	-8
35	0.5	-2.4	0.66	10	NS(=O)(=O)OCC1CCCCC1	-0.1	i	-10
36	-81	-1.0	0.65	-17	N#Cc1c(-c2ccc(F)cc2)ccnc1N1CCOCC1	0.4	i	-12
37	0.8	-5.4	0.68	5	COc1ccc(CNS(=O)(=O)NCc2ccc(OC)c(OC)c2)cc1	-1.2	i	1
38	3.8	-0.7	0.7	60	Cc1cc(O)c(C(C)C)cc1NC(=O)c1cccc(Cl)c1	5.6	.	-2
39	38*	-1.2	0.53	-26	CCC(C)(C)c1ccc(OCCCC[n+]2cccc(C)c2C)c(C(C)(C)CC)c1	-0.1	i	56*
40	3.2	-1.4	0.73	2	Cc1ccccc1CNC(=O)c1ccc(Cl)c([N+](=O)[O-])c1	0.7	.	-4
41	-136	0.5	0.67	7	CCOC(=O)C1CCN(c2cc3c(cc2NC(=O)c2ccccc2F)n(C)c(=O)n3C)CC1	-0.4	i	-4
42	0.6	-3.1	0.69	14	CC(=O)NC1(C(F)(F)F)NC(=O)N(C2CCCCC2)C1=O (centres undefined)	-2.2	.	2
43	.	-1.7	.	-1	CC1S/C(=N/N=C/c2cccs2)NC1=O (centres undefined)	-0.8	.	4
44	-10	-1.3	0.72	-12	Cc1c(OCC(=O)NCc2cccnc2)ccc2c3c(c(=O)oc12)CCC3	2.3	i	1
45	.	-1.3	.	2	C/C(=N\NC(=O)CN1CCN(Cc2ccccc2)CC1)c1cccs1	6.4	i	-3
46	4.8	2.0	0.68	0	COc1ccc(OCc2nnc(SCC(=O)Nc3nnc(C4CC4)s3)n2C)cc1	4.0	i	-3
47	0.5	-2.2	0.72	58	O=C(Cc1cccs1)Nc1nnc(C2CC2)s1	2.6	i	-7
48	-0.2	3.1	0.69	-3	CCOC(=O)CSc1ncnc2c1cnn2-c1ccc(C)cc1C	-0.1	.	5
49	5.2	-3.0	0.72	.	O=C(NCC1CCCO1)c1ccc2ccccc2n1 (centres undefined)	1.1	.	-5
50	-0.4	2.1	0.7	-21	COc1ccc(NC(=O)Nc2ccon2)cc1OC	-3.5	i	-3

(more compounds)
cpd	UCH37 DUB inh	LANA-H2A inh	E coli growth	ALR H2O2 inh	mol	HNF4A DNA FP	FGF22 binding	Beta2AR agonist
51	4.9	2.7	0.62	-9	O=C(COC(=O)CSc1ccc([N+](=O)[O-])cc1)NC1CCCCCCC1	0.9	i	0
52	.	.	.	.	O=c1[nH]c2cc([N+](=O)[O-])ccc2c2ccccc12	-1.8	i	9
53	3.4	0.4	0.58	-1	Cc1nc2c3ccccc3n(CCN3CCCCC3)c2s1	.	.	.
54	-172	1.1	0.77	4	COC(=O)c1cc2c(s1)-c1ccccc1CC2	0.3	.	-3
55	1.1	3.3	0.76	-5	COc1cc(CCC(=O)OCC(=O)NCc2ccc(Cl)cc2)cc(OC)c1OC	-0.1	i	-5
56	-2.7	-7.2	0.69	-3	COc1ccc(CCNC(=O)Cc2ccsc2)cc1	5.6	i	3
57	2.4	.	0.65	.	CCc1ccc(OC2=NS(=O)(=O)c3ccccc32)cc1	-3.1	i	1
58	3.5	2.9	0.67	1	O=S1(=O)N=C2CCCCCN2C(c2ccc(Cl)cc2)N1 (centres undefined)	-5.2	i	2
59	5.7	0.8	0.7	3	Cn1cc(CNC(=O)c2cc(-c3ccccc3)nc3ccc(Br)cc23)cn1	3.4	.	5
60	1.2	-0.7	0.71	-1	Nc1c(N(CCC2=CCCCC2)C(=O)c2ccccc2F)c(=O)[nH]c(=O)n1Cc1ccccc1	0.8	i	-2
61	.	0.6	.	-8	O=C(N/N=C/c1cccc2ccccc12)c1ccncc1	-0.4	i	12
62	-2.1	-1.4	0.73	-3	CCCCC(=O)NCCc1cc2ccc(OC)cc2[nH]c1=O	1.9	.	-4
63	-0.5	3.1	0.67	.	COC(=O)C(Cc1c[nH]c2ccccc12)NC(=O)c1ccccc1Br (centres undefined)	0.5	i	10
64	-0.3	2.6	0.62	-13	CN(CCO)C(=O)C(c1ccccc1)c1ccccc1	184	i	3
65	-30	1.1	0.68	-15	CCOc1cc(C2Nc3cccc4cccc(c34)N2)ccc1O	6.6	.	18
66	10	-0.6	0.64	-2	CN(c1ccccc1)c1nc(N)c([N+](=O)[O-])c(N2CCOCC2)n1	-0.5	i	3
67	3.4	8.3	0.68	0	O=C(Cn1cc([N+](=O)[O-])cn1)Nc1nc2ccccc2s1	-0.6	i	2
68	.	.	.	.	Cn1c(=O)c2[nH]c(CCCc3ccc([N+](=O)[O-])cc3)nc2n(C)c1=O	-18	i	-15
69	-0.8	.	0.63	.	CCOc1ccc(NS(=O)(=O)c2cc(C(=O)NCC3CCCO3)ccc2Cl)cc1 (centres undefined)	1.9	i	-9
70	2.4	-4.1	0.83	54	Cc1ccc(-c2nc(CS(=O)CC(=O)NCc3ccc(Cl)cc3)c(C)o2)cc1 (centres undefined)	2.0	i	-3
71	4.8	0.2	0.65	-10	CN(C)c1cc(-c2ccc(Cl)cc2Cl)oc(=O)c1Cl	-1.4	i	-5
72	0.7	-2.5	.	7	CCOC(=O)[C@@H]1[C@H]2COc3ccc(Br)cc3[C@@H]2N2C(=O)N(c3ccc(C)cc3)C(=O)[C@@]12C	-0.9	i	-7
73	-1.1	0.8	0.68	?	CCOc1cc(/C=C(/NC(C)=O)C(=O)O)cc(Cl)c1OCc1cccc(Br)c1	3.4	i	-5
74	6.2	-1.0	0.69	1	O=Nc1c(O)n(Cc2cccc(Cl)c2)c2ccccc12	-2.3	.	6
75	0.1	-3.5	0.63	-6	O=C(O)C1C2C=CC(C2)C1C(=O)NCc1cccc(Cl)c1 (centres undefined)	1.2	i	-3
76	1.1	2.0	0.67	-3	CCCn1ccnc1SC(C)C(=O)Nc1c(C)n(C)n(-c2ccccc2)c1=O (centres undefined)	0.9	i	0
77	4.3	1.9	0.72	-52	Cc1ccc(CN2CCNC(=O)C2CC(=O)O)cc1 (centres undefined)	-2.7	i	-7
78	-0.2	3.2	0.62	-2	O=C(Nc1ccnn1C1CCN(C2CCC2)CC1)c1ccccc1	-1.7	i	3
79	1.9	3.9	0.71	0	Cc1ccc(NC(=O)c2ccoc2C)cc1C	-0.7	.	1

This is a subset; rates above refer to the full screens.
